# GIV-Gai inh – inhibitors of GIV peptide binding to Galpha-i3, primary screen, biochemical, fluorescence polarization, FITC-GIV GBA peptide, rat Galphai3; AID 1224905, 2016; 0.42% of 210,000 active; percent of control (FP), % (test concentration not listed); 90 min; hits give low values; scaled: aluminum fluoride 0%, vehicle 100%; Guanine nucleotide-binding protein G(i) subunit alpha-3 (Rattus norvegicus), P08753;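 active = replicate mean at 85% of control or lower, very high polarization wells dropped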;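 also: wells of about 15 µL received 100 nL stock; the first replicate is given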
# Target sequence (P08753 whole entry, looked up): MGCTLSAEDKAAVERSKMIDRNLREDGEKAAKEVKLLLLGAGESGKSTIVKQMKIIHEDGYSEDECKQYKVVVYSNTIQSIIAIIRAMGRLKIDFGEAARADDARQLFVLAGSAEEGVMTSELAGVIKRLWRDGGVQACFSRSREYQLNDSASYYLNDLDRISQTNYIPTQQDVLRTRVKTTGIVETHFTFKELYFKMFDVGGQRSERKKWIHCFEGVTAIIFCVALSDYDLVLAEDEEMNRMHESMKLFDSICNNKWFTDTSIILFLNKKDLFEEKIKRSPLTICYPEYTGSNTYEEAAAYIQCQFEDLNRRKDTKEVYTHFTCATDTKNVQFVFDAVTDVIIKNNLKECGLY
# Sa growth inh – S. aureus growth inhibition at 42 and 30 °C, primary screen, LtaS inhibitor project, RN4220, two temperatures | OD600, 20 h, 42 °C; hits give low values | relative growth, % (test concentration not listed) | 0.53% of 170,000 active | AID 720641, 2013;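 active = growth at 42 °C up to 50% and 20 or more points under that at 30 °C, or under 10% at both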;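 also: 300 nL library stock went into each well; scaled to the means of positive and negative controls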
# HCMV NEC inh – inhibitors of HCMV UL50-UL53 interaction, biochemical, HTRF; AID 1918969, 2023; 0.15% of 190,000 active; inhibition, % (test concentration not listed); normalized percent inhibition; HCMV UL50-UL53 nuclear egress complex (human cytomegalovirus);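 active = both replicates at 50% or more, plus weaker picks with an unusually low signal ratio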;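 also: stock transfer was 100 nL into about 20 µL; 0% = negative control wells and 100% = wells with untagged competitor protein; inactives centre near -12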
# Sa growth inh second temp – recorded beside Sa growth inh, whose call it bears; relative growth, %; measured here: growth at 30 °C;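 optical density after 20 h as mean of two plates; 100% = untreated growth and lower means inhibition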
# * marks the source's active call; other numbers are inactive results; nt = not tested or not shown; & = joins results of further samples. Rows were taken by chance; 0.85% or so of the library scored in one or more.
SMILES	GIV-Gai inh	Sa growth inh	Sa growth inh second temp	HCMV NEC inh
COc1ccc(S(=O)(=O)N2CCN(C(=O)c3cc(-c4ccc(Br)cc4)n[nH]3)CC2)cc1OC	105	100	86	nt
COc1ccc(Cc2nnc(Nc3ccc(Cl)cc3Cl)o2)cc1OC	102	87	80	-24
CCc1ccc(NC(=O)Cn2c(=O)n(C3CCCCC3)c(=O)c3cccnc32)cc1	103	89	90	nt
Cc1ccc2oc(=O)c3cnn(CC(=O)Nc4cc(C)on4)c3c2c1	102	81	86	-28
O=C(c1ccc(Cl)c(Cl)c1)c1nn2c(nc(=O)c3ccccc32)s1	100	107	86	-16
O=S(=O)(NC1CCCC1)c1ccc(N2CCCCS2(=O)=O)cc1	106	nt	nt	-9
CS(=O)(=O)N1CCc2cc(C(=O)Cn3nc(C(=O)O)c4ccccc4c3=O)ccc21	nt	81	84	-21
N#Cc1ccc(/C=N/n2c(-c3ccco3)csc2=Nc2ccccc2)cc1	nt	106	93	2
NNc1nccc(C(F)(F)F)n1	104	87	86	-23
Cn1c(-c2c(N)n(Cc3ccccc3)c3nc(C#N)c(C#N)nc23)nc2ccccc21	nt	78	91	-23
CCc1cc(C(=O)N2CCC(C)CC2)no1	102	nt	nt	-19
Cc1oc(-c2ccccc2)nc1C(=O)N1CCN(c2ccccc2)CC1	nt	76	90	10
CCC1CCCCN1C(=O)c1cc(-c2ccc(Cl)c(Cl)c2)on1 (stereo unspecified)	110	107	95	nt
Cc1cccc(NC(=O)CSc2nc3c(oc4ccccc43)c(=O)n2C(C)C)c1	100	103	74	-37
COc1ccc(NC(=O)n2ccc(C(=O)N3CCOCC3)n2)cc1	nt	91	87	-11

# The listing continues:
SMILES	GIV-Gai inh	Sa growth inh	Sa growth inh second temp	HCMV NEC inh
COc1cc(NC(=O)c2ccc(NC(=O)N3CCSc4ncccc43)cc2)cc(OC)c1	105&99	81	87	6
COc1ccc(S(=O)(=O)n2nc(C)c(S(=O)(=O)N3CCCCCC3)c2C)cc1	103	93	90	nt
CCCn1c(N)c(C(=O)CSc2ncn[nH]2)c(=O)n(C)c1=O	nt	110	98	-6
CCc1cccc(Nc2ncnc3onc(-c4ccc(F)cc4)c23)c1	103	86	93	nt
CCOc1cc(-c2nnc(SCC(=O)NCc3ccccc3)nc2-c2ccc(OC)c(OCC)c2)ccc1OC	107	94	91	nt
Nc1nc(SCCOc2ccccc2)nc(-c2ccncc2)n1	nt	81	93	-12
CCC(C)NC(=O)Cn1c(=O)n(-c2ccc(C)c(C)c2)c(=O)c2c(C)c(C(=O)N(CC)CC)sc21 (stereo unspecified)	97	80	89	nt
O=S(=O)(c1cccc(-c2nnc(SCc3cn4ccsc4n3)n2-c2ccccc2)c1)N1CCCC1	nt	92	87	-21
O=C(NCC(c1ccc2c(c1)OCO2)N1CCN(c2ccccc2)CC1)C(=O)Nc1ccccc1F (stereo unspecified)	96	94	92	nt
O=C1C=CC(=O)N1c1ccc2ccccc2c1	nt	50	18	-26
COc1ccc(S(=O)(=O)N(CC(=O)NCCc2ccccc2)c2ccc(Cl)cc2)cc1	99	94	94	-1
Nc1c(C(=O)c2ccccc2O)cnn1C(=S)NC1CCCCC1	nt	69	97	0
CC(C)c1ccc(OCc2cc(=O)n3c(-c4ccccc4)csc3n2)cc1	113	99	84	15
CC1=C(C(=O)Nc2cccc(C)n2)C(c2cc([N+](=O)[O-])ccc2Cl)C2=C(CC(C)(C)CC2=O)N1 (stereo unspecified)	98	nt	nt	-22
CC1CCCN(C(=O)COC(=O)Cc2n[nH]c(=O)c3ccccc23)C1 (stereo unspecified)	nt	86	90	-28

# (continued)
SMILES	GIV-Gai inh	Sa growth inh	Sa growth inh second temp	HCMV NEC inh
O=C(Nn1ncc2ccccc21)c1ccccc1	nt	123	79	-28
CC1CCCC(C)N1C(=O)COC(=O)/C=C/c1ccc(Br)o1 (stereo unspecified)	nt	92	92	-59
COc1ccc(CCNC(=O)c2ccc3c(c2)N=C(C)c2ccccc2S3)cc1OC	104	118	62	-20
CCOC(=O)c1cc(-c2ccc(Cl)cc2)oc1/C=N/OC(=O)c1ccco1	106	91	87	-14
Brc1cc2c(cc1[C@H]1Nc3ccccc3[C@H]3C=CC[C@H]31)OCO2	102	nt	nt	-9
Cc1ccccc1CN1C(=O)c2ccccc2S(=O)c2ccc(C(=O)NCc3ccccc3Cl)cc21 (stereo unspecified)	102	nt	nt	-22
NC(=O)CN(Cc1ccccc1F)S(=O)(=O)c1ccc(Cl)cc1	nt	100	82	-9
CC12CNCC(C)(CN(C(=O)CCC(=O)O)C1)C2=O	102	91	106	-6
C=CCn1c(N)c(C(=O)Nc2ccc(C)cc2)c2nc3ccccc3nc21	nt	102	96	2
CC(C)NC(=O)CN1CCN(c2ccc(NC(=O)C3CC3)c(C(=O)O)c2)CC1	101	nt	nt	-12
COc1ccc2oc(C(=O)OCC(=O)Nc3cccnc3Cl)c(C)c2c1	nt	105	93	-20
COc1ccc(-c2csc(N)n2)cc1OC	99	112	94	-47
CCc1cccc(CC)c1NC(=O)C1CCC(CNS(=O)(=O)c2cccc3nsnc23)CC1 (stereo unspecified)	106	91	93	-66
O=C(COc1coc(CN2CCN(Cc3ccccc3)CC2)cc1=O)NCC1CCCO1 (stereo unspecified)	108	95	94	2
COc1ccc2c(c1OC)C(=O)OC2CC(=O)c1ccccc1 (stereo unspecified)	95	70	103	-38

# Later entries.
SMILES	GIV-Gai inh	Sa growth inh	Sa growth inh second temp	HCMV NEC inh
CCCn1c(=O)n(C)c(=O)c2c(SCc3cc(=O)n4ccsc4n3)nc(CC(C)C)nc21	nt	82	99	-19
O=C1c2ccccc2C(=O)N1CC(O)CN1CCN(c2ccccc2Cl)CC1 (stereo unspecified)	nt	86	81	-10
COc1ccc(OC)c(CCNC(=O)c2ccc3c(c2)N(Cc2ccc(C)cc2)CCS3)c1	103	118	92	-6
N#Cc1ccc(C(=O)OC2CCCCC2=O)cc1 (stereo unspecified)	nt	86	93	-8
Cc1ccc(-c2ocnc2C(=O)O)cc1	101	108	75	0
O=C1c2cccc3c(N4CCOCC4)ccc(c23)C(=O)N1c1ccccc1	94	100	96	-91
Cc1cccc(CSc2nc3ccncc3n2CC(=O)Nc2cccc(Cl)c2C)c1	103	nt	nt	-25
CCOc1ccc(CCNC(=O)c2cccc(-n3c(C)nc4cccnc43)c2)cc1	109	73	81	nt
Clc1ccc(-c2noc3ncnc(N4CCCCC4)c23)cc1	101	103	92	-28
CCN(Cc1cc(OC)c(OC)c(OC)c1)C(=S)Nc1cccc(SC)c1	109	103	89	-6
Nc1nc2ccc(S(=O)(=O)c3ccccc3)cc2[nH]1	110	85	95	-1
COc1ccc(NC(=O)C2CCCN(S(=O)(=O)c3cc4c(cc3C)NC(=O)CO4)C2)cc1 (stereo unspecified)	105	nt	nt	6
CCOc1ccc(NC(=O)NCCc2c(C)nn(C)c2C)cc1	101	86	90	nt
CN1c2ccccc2C2=C(C(c3cccnc3)C(C#N)=C(N)O2)S1(=O)=O (stereo unspecified)	113	96	90	-15
CCc1ccc(NC(=O)C2CCCN2S(=O)(=O)c2ccc3c(c2)CCCC(=O)N3)cc1 (stereo unspecified)	100&109	102	90	-29

# The listing continues.
SMILES	GIV-Gai inh	Sa growth inh	Sa growth inh second temp	HCMV NEC inh
N#C/C=C1\SCC(=O)N1CC(O)c1ccc(Cl)cc1 (stereo unspecified)	nt	86	81	-17
COc1ccccc1CN1CCNC(=O)C1=O	104	100	83	nt
O=C(NCCCN1CCCC1=O)c1sc2ccccc2c1Cl	nt	107	81	-59
CC1=C(C(N)=O)C(c2ccccc2)n2ncnc2N1 (stereo unspecified)	102&107	95	97	-1&-6
C=CCn1c(CCCO)nc2ccccc21	100	119	86	-1
CN1C(=O)C(=Cc2ccccc2OS(=O)(=O)c2ccccc2[N+](=O)[O-])C(=O)N(C)C1=O	103	nt	nt	14
CC(=O)Nc1ccc(NC(=O)CN(C)S(=O)(=O)c2ccc(F)cc2)cc1	nt	98	97	6
COc1ccc(Cl)cc1C(=O)CSc1nnnn1C1CCCCC1	102	110	101	-2
CC(C)COC(=O)CN1C(=O)C2C3c4ccccc4C(c4ccccc43)C2C1=O (stereo unspecified)	103	103	89	-11
Cc1ccnn1-c1ccc(Cl)cc1	101	84	82	-18
CCc1ccccc1-n1nnc(-c2nc(-c3ccccc3F)no2)c1C	107	95	95	nt
CCn1c(C2CCCN2C(C)=O)nc2ccccc21 (stereo unspecified)	101	nt	nt	-20
COc1ccc(CCNC(=O)CCn2c(=O)c3cccn3c3cccnc32)c(OC)c1	104	104	100	-2
CN(CCNC(=O)c1nc(-c2cccnc2)no1)C1CCCCC1	105	86	91	-23
Cn1c(CNC(=O)c2ccccc2F)nnc1SCC(=O)Nc1nnc(C2CCCCC2)s1	98	109	91	-6

# Additional results.
SMILES	GIV-Gai inh	Sa growth inh	Sa growth inh second temp	HCMV NEC inh
CCCOc1ccc(NC(=O)CC2C(=O)N(c3ccc(C)cc3)C(=O)N2C2CCCC2)cc1 (stereo unspecified)	103	107	80	-8
COc1ccc(S(=O)(=O)N2Cc3ccccc3CC2C(=O)NCc2ccc3c(c2)OCO3)cc1 (stereo unspecified)	nt	109	87	-16
CCCCn1c(SCc2nc(-c3ccccc3Cl)no2)nc2ccccc2c1=O	nt	100	99	8
CCc1ccc2c(CN3CCc4ccccc43)cc(=O)oc2c1	nt	91	92	-14
NC(=O)c1cnc2n(c1=O)CCS2	103	92	87	-28
O=c1[nH]cccc1-c1nc(-c2ccccc2)no1	100	nt	nt	-108
Cc1cccc(NC(=O)NCCCn2c(-c3ccncc3)nc3cccnc32)c1C	101	nt	nt	0
COC(=O)Cn1c(C)cc(=O)n2nc(-c3ccccc3C)nc12	103	nt	nt	-15
COC(=O)c1cc(=O)c2c(SC)nc(-c3ccccc3)nc2[nH]1	nt	119	92	-8
COC(=O)C(CC(C)C)NC(=O)c1ccco1 (stereo unspecified)	nt	99	85	3
O=S1(=O)CCC(OC2CCS(=O)(=O)C2)C1 (stereo unspecified)	103	98	85	-23
COc1ccc(-c2nc(S(=O)(=O)c3ccccc3)c(NCC3CCCO3)o2)cc1 (stereo unspecified)	nt	81	94	-36
CCOc1cc(-c2nc3c(c(CC)nn3-c3ccccc3)c3cc(OC)c(OC)cc23)ccc1O	105	95	86	-26
COCCNC(=O)c1ccccc1NC(=O)c1ccco1	103	113	93	-15
Cc1nc(C)c(-c2nc(-c3ccc4c(c3)[nH]c(=O)n4C(C)C)no2)s1	104	nt	nt	-22

# More records follow.
SMILES	GIV-Gai inh	Sa growth inh	Sa growth inh second temp	HCMV NEC inh
COc1cccc(N2CCN(S(=O)(=O)c3ccc(-n4cnnn4)cc3)CC2)c1	102	98	87	20
COc1ccc(OC)c(NC(=O)c2cccc(N3CCCS3(=O)=O)c2)c1	110	nt	nt	7
CN(Cc1ccccc1)Cc1ccco1	105	105	100	-16
CCCNC(=O)c1ccc(N2CC3CC(C2)c2cccc(=O)n2C3)c(NC(=O)Nc2cccc(OC)c2)c1 (stereo unspecified)	108	104	92	21
COc1ccc(NCC(C#N)C(=O)NCc2ccc(Cl)cc2)cc1 (stereo unspecified)	nt	97	74	-25
O=C(CSCc1cnn(-c2ccccc2)c1-n1cccc1)NCCN1CCOCC1	106	91	82	3
O=C(Nc1cccc(-c2nn[nH]n2)c1)c1ccc(Br)o1	99	108	93	-24
Cc1ccc2nc3c(cc2c1)CCN3S(=O)(=O)c1ccc(C(C)C)cc1	110	nt	nt	-18
N#Cc1cn(CCOc2ccccc2F)c2ccccc12	103	106	71	-11
CC1=C(C(=O)N2CCCCC2)C(c2ccc(Br)cc2)C2=C(CCCC2=O)N1 (stereo unspecified)	nt	102	84	-52
COc1ccccc1N1CCN(C(=O)CN(c2ccc(C)cc2)S(=O)(=O)c2ccc(F)cc2)CC1	102	nt	nt	-13
O=C(CC1CCCC1)N1CCCC(c2nc3c(nnn3Cc3cccc(Cl)c3)c(=O)[nH]2)C1 (stereo unspecified)	111	nt	nt	-10
COc1ccc(CCN=C2CCc3ccccc3N2)cc1OC	101	102	108	nt
O=C(CCOc1ccccc1)Nc1nc2c(ccc3ccccc32)s1	99	93	75	nt
Cc1ccc(S(=O)(=O)NC2c3cccc4cccc(c34)C2Sc2ccccn2)cc1 (stereo unspecified)	100	98	92	nt

# Screening results from PubChem.
